Env fusion inh: inhibitors of HIV Env-mediated cell fusion; HeLa-JRFL Env/CEM21 cell fusion, luciferase; inhibition, % at 12.3 µM; hit rate 1.1% among 360,000;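 active = mean replicate inhibition score of at least 50 and every replicate individually at or above 50; inconclusive = only one of the two criteria met; inactive = mean below 50 and not all replicates reaching 50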;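 also: 0% = plate neutral controls and 100% = maraviroc near 300 nM; one replicate is shown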
Yeast UUG start: modulators of start codon recognition fidelity in yeast; S. cerevisiae UUG-firefly luciferase reporter, luminescence/redox ratio; activity score, % at 18.7 µM; hit rate 0.13% among 350,000;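 active = replicate mean at a twofold rise or more, about +100% in these data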;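 also: firefly luciferase made from a UUG start codon reports start codon fidelity; reporter light over untreated wells divided by growth signal over untreated wells; some hits fall short of that in this replicate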
* = called active by the depositor; ? = inconclusive; & = joins results of further samples; [ ] = remark or other dose.

Env fusion inh | Yeast UUG start | SMILES
12[16.7 µM] | -1 | COc1ccc(NC(=O)N(C)C[C@H]2Oc3ccc(NS(=O)(=O)c4ccccc4)cc3C(=O)N([C@@H](C)CO)C[C@@H]2C)cc1
-8[16.7 µM] | -8 | COc1ccc(NC(=O)Nc2ccc3c(c2)C(=O)N([C@H](C)CO)C[C@H](C)[C@H](CN(C)S(=O)(=O)c2ccccc2)OCCCC[C@H](C)O3)cc1
0[16.7 µM] | 12 | Cc1ccccc1S(=O)(=O)NCC[C@H]1CC[C@@H](NC(=O)Nc2cccc(F)c2)[C@H](CO)O1
0[16.7 µM] | -9 | CCCC#Cc1cnc2c(c1)C(=O)N([C@@H](C)CO)C[C@H](C)[C@@H](CN(C)S(=O)(=O)c1cn(C)cn1)O2
-4[16.7 µM] | 8 | COc1ccc(NC(=O)Nc2ccc3c(c2)C(=O)N([C@@H](C)CO)C[C@H](C)[C@@H](CN(C)Cc2ccncc2)OCCCC[C@@H](C)O3)cc1
-83[16.7 µM] | 4 | C[C@H](CO)N1C[C@H](C)[C@H](CN(C)C(=O)C2CCCCC2)Oc2cc(C#CC(C)(C)O)ccc2S1(=O)=O
8[16.7 µM] | -13 | COC(=O)C[C@@H]1C=C[C@@H](NS(=O)(=O)c2ccc(OC)cc2)[C@H](CO)O1
-10[16.7 µM] | 3 | C[C@@H]1CN([C@H](C)CO)C(=O)Cc2cc(N(C)C)ccc2O[C@@H]1CN(C)S(=O)(=O)c1cn(C)cn1
-14[16.7 µM] | -5 | CNC[C@@H]1Oc2ncc(-c3cccc(F)c3)cc2C(=O)N([C@@H](C)CO)C[C@@H]1C
8[16.7 µM] | 2 | Cc1noc(C)c1NC(=O)N[C@@H]1CC[C@@H](CCNC(=O)C2CCC2)O[C@H]1CO
-13[16.7 µM] | -15 | COC(=O)C[C@@H]1C[C@H]2c3cc(NC(=O)Cc4ccncc4)ccc3O[C@H]2[C@@H](CO)O1
-10[16.7 µM] | 24 | COc1ccc(NC(=O)N(C)C[C@@H]2Oc3ccc(NC(=O)Nc4ccc(F)cc4)cc3CC(=O)N([C@@H](C)CO)C[C@H]2C)cc1
-30[16.7 µM] | -38 | Cc1noc(C)c1NC(=O)N(C)C[C@H]1Oc2ccc(NC(=O)Nc3ccc(F)cc3)cc2C(=O)N([C@H](C)CO)C[C@H]1C
-49[16.7 µM] | -8 | C[C@@H]1CCCCO[C@H](CN(C)C(=O)Nc2cccc3ccccc23)[C@@H](C)CN([C@H](C)CO)C(=O)c2cc(NC(=O)Nc3ccccc3)ccc2O1
19[16.7 µM] | -1 | C[C@@H]1CCCCO[C@H](CN(C)CC2CCCCC2)[C@H](C)CN([C@H](C)CO)C(=O)c2cc(NC(=O)NC3CCCCC3)ccc2O1
21[16.7 µM] | 12 | O=C(C[C@@H]1C[C@H]2c3cc(NC(=O)Nc4ccccc4F)ccc3O[C@H]2[C@H](CO)O1)NC1CCCC1
6[16.7 µM] | -1 | COc1ccc(NC(=O)Nc2ccc3c(c2)C(=O)N([C@H](C)CO)C[C@@H](C)[C@H](CN(C)S(=O)(=O)c2ccc(Cl)cc2)O3)cc1
-16[16.7 µM] | 15 | C[C@H](CO)N1C[C@H](C)[C@@H](CN(C)Cc2cccc(F)c2)Oc2ncc(C3=CCCC3)cc2C1=O
-18[16.7 µM] | -13 | CC(C)CC#Cc1ccc2c(c1)O[C@@H](CN(C)C(=O)Cc1ccccc1)[C@@H](C)CN([C@@H](C)CO)S2(=O)=O
-2[16.7 µM] | 11 | CO[C@H]1CN(C)C(=O)c2cc(NS(C)(=O)=O)ccc2OC[C@H](C)N(CC2CCOCC2)C[C@H]1C
-1[16.7 µM] | 4 | COc1ccccc1-c1cnc2c(c1)C(=O)N([C@H](C)CO)C[C@H](C)[C@H](CN(C)Cc1cncnc1)O2
-16[16.7 µM] | 11 | C[C@@H]1CN([C@H](C)CO)S(=O)(=O)c2ccc(C#CC(C)(C)O)cc2O[C@@H]1CN(C)C(=O)C1CCC1
-4[16.7 µM] | 11 | C[C@H]1CN([C@@H](C)CO)C(=O)c2cccc(NS(C)(=O)=O)c2O[C@@H]1CN(C)Cc1ccncc1
-2[16.7 µM] | 5 | CCCN1C[C@@H](C)[C@@H](OC)CN(C)C(=O)c2ccc(NC(=O)C3CCOCC3)cc2OC[C@@H]1C
-5[16.7 µM] | -4 | C[C@H]1CN([C@@H](C)CO)C(=O)c2cc(C#Cc3ccccc3)cnc2O[C@H]1CN(C)C(=O)c1ccccn1
17[16.7 µM] | 12 | C[C@@H]1CN([C@H](C)CO)C(=O)c2cc(NC(=O)CCC(F)(F)F)ccc2O[C@@H](C)CCCCO[C@@H]1CN(C)C(=O)CCC(F)(F)F
23[16.7 µM] | 1 | CCCNC(=O)N1[C@@H](C#N)[C@H](c2ccc(C#Cc3ccc(F)cc3)cc2)[C@@H]1CO
15&-15[16.7 µM] | 8 | C[C@@H]1CN([C@H](C)CO)C(=O)c2cc(-c3cncnc3)cnc2O[C@@H]1CN(C)Cc1ccc(Oc2ccccc2)cc1
16[16.7 µM] | 15 | O=C(Cc1ccccc1)N[C@H]1CC[C@@H](CC(=O)N2CCOCC2)O[C@H]1CO
-17[16.7 µM] | 1 | C[C@H]1CN([C@@H](C)CO)C(=O)c2cc(NC(=O)Cn3cnnn3)ccc2O[C@@H]1CN(C)S(=O)(=O)c1ccc(F)cc1
-11[16.7 µM] | 0 | C[C@H]1CN([C@@H](C)CO)C(=O)c2cc(NC(=O)Cc3ccccc3)ccc2O[C@H]1CN(C)S(C)(=O)=O
? | 12 | C[C@@H]1CN([C@@H](C)CO)C(=O)c2cc(NS(C)(=O)=O)ccc2O[C@@H](C)CCCCO[C@@H]1CN(C)C(=O)Nc1ccc(F)cc1
-13[16.7 µM] | -10 | C[C@@H]1CN([C@H](C)CO)C(=O)Cc2cc(NS(C)(=O)=O)ccc2O[C@H]1CN(C)S(C)(=O)=O
-18[16.7 µM] | 28 | C[C@@H]1CCCCO[C@@H](CN(C)Cc2ccc(Cl)c(Cl)c2)[C@H](C)CN([C@@H](C)CO)C(=O)c2cc(NC(=O)C3CCCCC3)ccc2O1
-15[16.7 µM] | 6 | CN1C(=O)c2cc(NS(=O)(=O)c3ccc(Cl)cc3)ccc2OC[C@H]2O[C@H](CC(=O)N3CCc4ccccc4C3)CC[C@@H]21
-12[16.7 µM] | 5 | CC(C)NC(=O)Nc1ccc2c(c1)C(=O)N([C@H](C)CO)C[C@@H](C)[C@@H](CN(C)S(=O)(=O)c1cn(C)cn1)OCCCC[C@H](C)O2
-13[16.7 µM] | -20 | Cc1ccc(S(=O)(=O)N[C@H]2C=C[C@@H](CC(=O)NC3CCCCC3)O[C@@H]2CO)cc1
-2[16.7 µM] | 10 | O=C(C[C@@H]1C[C@H]2c3cc(NC(=O)NC4CCCC4)ccc3O[C@H]2[C@H](CO)O1)NCc1ccc2c(c1)OCO2
-2[16.7 µM] | -2 | COc1ccc(S(=O)(=O)Nc2ccc3c(c2)C(=O)N([C@H](C)CO)C[C@H](C)[C@H](CN(C)S(=O)(=O)c2ccc(F)cc2)OCCCC[C@@H](C)O3)cc1
6[16.7 µM] | -8 | CO[C@H]1CN(C)C(=O)c2cc(NS(C)(=O)=O)ccc2OC[C@@H](C)N(Cc2nccs2)C[C@H]1C

Given with tabs: part of the list above.
structure	Env fusion inh	Yeast UUG start
C[C@H]1CN([C@@H](C)CO)C(=O)c2cc(NC(=O)Cn3cnnn3)ccc2O[C@@H]1CN(C)S(=O)(=O)c1ccc(F)cc1	-17[16.7 µM]	1
C[C@@H]1CN([C@H](C)CO)C(=O)c2cc(NC(=O)CCC(F)(F)F)ccc2O[C@@H](C)CCCCO[C@@H]1CN(C)C(=O)CCC(F)(F)F	17[16.7 µM]	12

(more compounds)
Env fusion inh | Yeast UUG start | SMILES
-12[16.7 µM] | 16 | C[C@@H]1CN([C@H](C)CO)C(=O)c2cc(C3=CCCCC3)cnc2O[C@H]1CN(C)Cc1ccccc1C(=O)O
-2[16.7 µM] | 22 | COc1ccc(S(=O)(=O)Nc2ccc3c(c2)C(=O)N([C@H](C)CO)C[C@H](C)[C@H](CN(C)CC2CC2)OCCCC[C@H](C)O3)cc1
19[16.7 µM] | -3 | C[C@H](CO)N1C[C@H](C)[C@H](CN(C)C(=O)Nc2cccc3ccccc23)Oc2ccc(NC(=O)Cc3cn(C)c4ccccc34)cc2CC1=O
30[16.7 µM] | -7 | C[C@H]1CCCCO[C@@H](CN(C)S(=O)(=O)c2cccs2)[C@@H](C)CN([C@@H](C)CO)C(=O)c2cc(NS(=O)(=O)c3cn(C)cn3)ccc2O1
12[16.7 µM] | 7 | C[C@H](NC(=O)C[C@H]1CC[C@@H]2[C@H](COC[C@H](O)CN2Cc2ccc(C(F)(F)F)cc2)O1)c1ccccc1
33[16.7 µM] | -4 | COc1ccc(S(=O)(=O)N(C)C[C@@H]2Oc3ccc(NC(=O)Nc4ccccc4)cc3C(=O)N([C@H](C)CO)C[C@@H]2C)cc1
22[16.7 µM] | 7 | CCNC(=O)C[C@H]1CC[C@H]2[C@@H](COc3ccc(NC(=O)Nc4cccc(C#N)c4)cc3C(=O)N2C)O1
2[16.7 µM] | -7 | COc1ccc(NC(=O)N(C)C[C@@H]2Oc3ccc(NC(=O)C4CCCCC4)cc3CC(=O)N([C@@H](C)CO)C[C@@H]2C)cc1
10[16.7 µM] | 12 | O=C(C[C@@H]1C[C@H]2c3cc(NC(=O)Nc4ccc(C(F)(F)F)cc4)ccc3O[C@H]2[C@H](CO)O1)NCC1CC1
10[16.7 µM] | -7 | C[C@@H]1CN([C@H](C)CO)S(=O)(=O)c2ccc(C#CC3CC3)cc2O[C@@H]1CN(C)C(=O)c1ccccn1
-4[16.7 µM] | -7 | O=C(C[C@H]1C=C[C@@H](NC(=O)c2ccccc2)[C@@H](CO)O1)NCCc1ccncc1
4[16.7 µM] | -17 | CS(=O)(=O)Nc1ccc2c(c1)[C@H]1C[C@@H](CC(=O)NCc3cccc(F)c3)O[C@@H](CO)[C@H]1O2
18[16.7 µM] | -3 | COc1ccc(NC(=O)Nc2ccc3c(c2)CC(=O)N([C@H](C)CO)C[C@H](C)[C@@H](CN(C)C(=O)Nc2cccc4ccccc24)O3)cc1
7[16.7 µM] | -3 | C[C@H](CO)N1C[C@H](C)[C@@H](CN(C)C(=O)CN(C)C)Oc2cc(C#Cc3cccnc3)ccc2S1(=O)=O
8[16.7 µM] | 3 | C[C@@H]1CN([C@H](C)CO)C(=O)c2cc(NS(=O)(=O)c3cccs3)ccc2O[C@H]1CN(C)S(=O)(=O)c1ccc(F)cc1
-59[16.7 µM] | -1 | C[C@@H]1CN([C@H](C)CO)C(=O)c2cc(C3=CCCCC3)cnc2O[C@@H]1CN(C)CC1CCOCC1
-5[16.7 µM] | 10 | Cc1noc(C)c1NC(=O)Nc1ccc2c(c1)CC(=O)N([C@@H](C)CO)C[C@@H](C)[C@@H](CN(C)S(C)(=O)=O)O2
11[16.7 µM] | -9 | COc1ccccc1S(=O)(=O)N[C@H]1C=C[C@@H](CC(=O)NCc2cccc(F)c2)O[C@@H]1CO
-8[16.7 µM] | 0 | N#C[C@@H]1[C@@H](c2ccc(-c3ccccc3F)cc2)[C@H](CO)N1C(=O)C1CCOCC1
3[16.7 µM] | -17 | C[C@H](CO)N1C[C@H](C)[C@H](CN(C)C(=O)c2ccccn2)Oc2ncc(-c3cccc(C#N)c3)cc2C1=O

Exported comma-delimited: 5 of the compounds above
canonical_smiles,Env fusion inh,Yeast UUG start
CCNC(=O)C[C@H]1CC[C@H]2[C@@H](COc3ccc(NC(=O)Nc4cccc(C#N)c4)cc3C(=O)N2C)O1,22[16.7 µM],7
COc1ccc(NC(=O)N(C)C[C@@H]2Oc3ccc(NC(=O)C4CCCCC4)cc3CC(=O)N([C@@H](C)CO)C[C@@H]2C)cc1,2[16.7 µM],-7
O=C(C[C@@H]1C[C@H]2c3cc(NC(=O)Nc4ccc(C(F)(F)F)cc4)ccc3O[C@H]2[C@H](CO)O1)NCC1CC1,10[16.7 µM],12
C[C@@H]1CN([C@H](C)CO)S(=O)(=O)c2ccc(C#CC3CC3)cc2O[C@@H]1CN(C)C(=O)c1ccccn1,10[16.7 µM],-7
O=C(C[C@H]1C=C[C@@H](NC(=O)c2ccccc2)[C@@H](CO)O1)NCCc1ccncc1,-4[16.7 µM],-7

Further compounds
Env fusion inh | Yeast UUG start | SMILES
7[16.7 µM] | -11 | C/C=C/c1ccc2c(c1)O[C@H](CN(C)Cc1cccc(F)c1)[C@H](C)CN([C@@H](C)CO)S2(=O)=O
1[16.7 µM] | 20 | CNC[C@H]1OCCCC[C@@H](C)Oc2ccc(N)cc2C(=O)N([C@@H](C)CO)C[C@H]1C
-6[16.7 µM] | 4 | COc1ccc(NC(=O)Nc2ccc3c(c2)C(=O)N([C@@H](C)CO)C[C@@H](C)[C@H](CN(C)S(=O)(=O)c2cccs2)OCCCC[C@@H](C)O3)cc1
0[16.7 µM] | -7 | CCCN(C)C[C@H]1Oc2cc(C#Cc3cccnc3)ccc2S(=O)(=O)N([C@@H](C)CO)C[C@H]1C
11[16.7 µM] | 10 | CC(C)NC(=O)Nc1ccc2c(c1)C(=O)N([C@H](C)CO)C[C@H](C)[C@@H](CN(C)CC1CC1)OCCCC[C@@H](C)O2
-8[16.7 µM] | 20 | CC(C)NC(=O)N(C)C[C@H]1Oc2ccc(NC(=O)Nc3cccc4ccccc34)cc2C(=O)N([C@H](C)CO)C[C@H]1C
1[16.7 µM] | -7 | O=C(Cc1ccncc1)NCC[C@H]1CC[C@@H](NC(=O)C2CCCC2)[C@H](CO)O1
0[16.7 µM] | -17 | O=C(Cc1ccncc1)NCC[C@@H]1CC[C@@H](NC(=O)Nc2ccc(Cl)cc2)[C@H](CO)O1
-16[16.7 µM] | 5 | CN1C(=O)c2cc(NS(=O)(=O)c3ccc(Cl)cc3)ccc2OC[C@H]2O[C@@H](CC(=O)N3CCc4ccccc4C3)CC[C@H]21

Source: PubChem (Broad Institute)

Some of the compounds tested; the hit share may differ from the screen's.
